# SARS PLP yeast – qHTS of Yeast-based Assay for SARS-CoV PLP | S. cerevisiae expressing SARS-CoV PLpro, growth rescue; control for the full effect not named in the record | Potency, µM (doses to about 32.9 µM), for the others: top-dose activity, positive = growth rescue | 330,000 compounds, 0.19% hits | AID 485353, 2010; active means well fitted rising curve with a large enough effect; inconclusive means small, poorly fitted or top-dose-only effect; inactive means no such curve, though single readings can be large or run the other way; further: 0% is about no effect; nearly all actives have a fitted effect of over 55% in size; growth read by luminescence after 48 h
# 2A StopGo – High Throughput Screening for Foot and Mouth Disease Virus Antivirals. human cells with a luciferase reporter of 2A StopGo recoding; control for the full effect not named in the record. 410,000 compounds, 1.2% hits. Potency, µM (highest dose often 57.9 µM), for the others: at the highest dose signal change, negative = less light; active = well fitted falling curve with a large enough effect; inconclusive = small, poorly fitted or top-dose-only effect; inactive = no such curve, though single readings can be large or run the other way; tested in HEK293T cells; further: on the % scale 0 is the no-effect control and ±100 the full control effect; nearly all actives have a fitted effect of over 45% in size; luciferase light after 4 h
# NS1 inh – qHTS Assay for Inhibitors of Influenza NS1 Protein Function. Potency, µM (titrated, usually from 46.1 µM), for the others: top-dose activity, positive = more growth. AID 2326, 2010. S. cerevisiae slowed by influenza A NS1, growth recovery by OD600. 270,000 compounds, 0.4% hits; active means well fitted rising curve with a large enough effect; inconclusive means small, poorly fitted or top-dose-only effect; inactive means no such curve, though single readings can be large or run the other way; further: nearly all actives have a fitted effect of over 50% in size
#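 OD600 was taken as the measure of yeast growth restored by compound in an NS1-expressing S. cerevisiae strain. Cells had been washed out of glucose medium and diluted 1:100 into galactose -URA medium, pH 6.0.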
# Cruzain noTriton – qHTS Assay for Promiscuous and Specific Inhibitors of Cruzain (without detergent). 200,000 compounds, 2.3% hits. Potency, µM, inactives show max response, negative = inhibition, most hits filed as inhibitors. purified cruzain, Z-FR-AMC fluorescence, no detergent. AID 1476, 2009;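 further: plate controls were enzyme without inhibitor for no effect and buffer without enzyme for full effect; nearly all actives have a fitted effect of over 40% in size; top concentration of the series not given in the record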
# Target sequence (P25779 123-467 limits assumed): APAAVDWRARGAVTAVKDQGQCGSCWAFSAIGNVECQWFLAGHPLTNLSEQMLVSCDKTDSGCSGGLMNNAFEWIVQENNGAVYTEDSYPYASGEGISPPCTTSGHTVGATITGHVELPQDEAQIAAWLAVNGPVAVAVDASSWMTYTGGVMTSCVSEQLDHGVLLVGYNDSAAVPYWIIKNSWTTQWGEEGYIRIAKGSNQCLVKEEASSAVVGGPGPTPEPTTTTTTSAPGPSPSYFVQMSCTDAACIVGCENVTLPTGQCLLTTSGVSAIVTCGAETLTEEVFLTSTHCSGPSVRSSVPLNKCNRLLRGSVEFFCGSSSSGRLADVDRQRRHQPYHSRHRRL
#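 Detergent-free condition (0.00005% Triton X-100) in acetate buffer pH 5.5 with DTT. 1.5 nM enzyme and compound were pre-mixed 15 min, then 2 uM Z-FR-AMC substrate added; reaction progress from fluorescence change between first and third reads (60 s).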
# LASV entry inh – qHTS for Inhibitors of binding or entry into cells for Lassa Virus. Lassa virus pseudotype entry inhibition, cell reporter; control for the full effect not named in the record. Potency, µM (titrated, usually from 37.9 µM), without a hit: top-dose activity change, negative = inhibition, most hits filed as inhibitors. 300,000 compounds, 1.2% hits. AID 540256, 2011; active means well fitted inhibition curve with a large enough effect; inconclusive means small, poorly fitted or top-dose-only effect, or effect the other way; inactive means flat fitted curve, though single readings scatter; tested in HEK293 cells; further: on the % scale 0 is the no-effect control and ±100 the full control effect; nearly all actives have a fitted effect of over 50% in size; luciferase read-out
# Cruzain inh Det – qHTS Assay for Promiscuous and Specific Inhibitors of Cruzain (with detergent); Cruzipain (Trypanosoma cruzi), P25779; purified cruzain, Z-FR-AMC fluorescence, 0.01% Triton; Potency, µM, without a hit: max response, negative = inhibition, usual class: inhibitors; 200,000 compounds, 0.43% hits;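 further: plate controls were neutral wells for no effect and buffer without enzyme for full effect; nearly all actives have a fitted effect of over 40% in size; top concentration of the series not given in the record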
#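 Enzyme 1.5 nM, Z-FR-AMC 2 uM, NaOAc 100 mM pH 5.5, DTT 5 mM, Triton X-100 0.01%; 15 min RT compound preincubation; kinetic ex360/em450, 60 s delta.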
# RE007 growth inh – qHTS Assay for Inhibitors of the HIV-1 protein Vpr. S. pombe RE007 Vpr strain, BacTiter-Glo ATP luminescence, 24 h; control for the full effect not named in the record. Potency, µM (top dose mostly 92.2 µM), for inactives: at the top dose activity change, negative = less growth. 360,000 compounds, 0.21% hits. AID 651644, 2012; active = well fitted falling curve with a large enough effect; inconclusive = small, poorly fitted or top-dose-only effect; inactive = no such curve, though single readings can be large or run the other way;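 further: on the % scale 0 is the no-effect control and ±100 the full control effect; nearly all actives have a fitted effect of over 50% in size; the assay follows cell death caused by Vpr and the record does not say whether a fall means rescue or toxicity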
#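 Fission yeast strain RE007, carrying one chromosomally integrated HIV-1 vpr copy, was seeded at OD 0.01 in PMG+AL medium with 23 nL pinned compound. After 24 h at 30 °C and 99% humidity, viability was read by BacTiter-Glo luminescence.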
# Marburg entry inh – qHTS for inhibitors of binding or entry into cells for Marburg Virus. Potency, µM (doses to about 37.8 µM), inactives show at the top dose activity change, negative = inhibition, usual class: inhibitors. 300,000 compounds, 1.8% hits. Marburg virus pseudotyped entry inhibition, cell reporter; control for the full effect not named in the record; about a third of the inactives were read at about 46 µM. AID 540276, 2011; active = well fitted inhibition curve with a large enough effect; inconclusive = small, poorly fitted or top-dose-only effect, or effect the other way; inactive = flat fitted curve, though single readings scatter; tested in HEK293 cells; about a fifth of its hits are not listed in these tables; further: on the % scale 0 is the no-effect control and ±100 the full control effect; luciferase read-out
# An asterisk follows results filed as active; u = inconclusive; x = not tested or not shown; & = joins results of further samples; [ ] = remark or other dose. Unless noted, the call rests on the fitted dose curve; in most records, active means well fitted curve in the direction sought with a large enough effect; inconclusive means small, poorly fitted or top-dose-only effect, or another doubt; inactive means no such curve, though single readings can be large; an effect the other way counts as inactive or inconclusive. Potency means the concentration at half of the fitted maximal effect. Not a hit list. Share with any hit: about 4.7%.
compound	SARS PLP yeast	2A StopGo	NS1 inh	Cruzain noTriton	LASV entry inh	Cruzain inh Det	RE007 growth inh	Marburg entry inh
C/C(=N/NC(=O)c1ccc(C)s1)c1cccc(NC(=O)COc2ccc(Cl)cc2Cl)c1	-2%	15%	2%	13µM*	-25%	-1.2%	-10%	u
CCc1nnc(SCC(=O)Nc2ccc(N3CCOCC3)cc2)o1	4%	6%	0%	5%	-8%	0.2%	47%	17%
CC(=O)Nc1cccc(C(=O)N/N=C/c2ccc(C)o2)c1	3%	2%	x	x	16%[46.1 µM]	x	0%	5%[46.1 µM]
Cc1ccc(OCC(=O)NCC(=O)n2nc(C)cc2C)cc1	-9%	10%	-3%	-8%	u	-2.0%	1%	1%&1%
CC(NC(=O)c1ccc2c(c1)N(Cc1ccc(Cl)cc1)C(=O)c1ccccc1S2=O)c1ccccc1 (stereo not given)	x	-7%	x	u	1%[46.1 µM]	-0.8%	x	u
Cc1occc1C(=O)N1CCN(c2ncccn2)CC1	-1%	-7%	u	-8%	15%	10%	1%	12%
Cc1cccc(N(CC(=O)NCC2CCCO2)C(=O)CCC(=O)Nc2cc(C)on2)c1 (stereo not given)	0%	6%	3%	-1%	u	2.7%	-1%	13%[46.1 µM]
CCOc1ccc(NC(=S)NC(=O)c2c(Cl)c(C)nn2C)c([N+](=O)[O-])c1	11%	-1%	5%	u	-16%	-3.0%	1%	1%
CC(C)N1C[C@@]23C=C[C@@H](O2)C(C(=O)OCc2ccccc2)[C@H]3C1=O (stereo not given in full)	8%	8%	-1%	-1%	6%	-0.4%	6%	7%
O=C(NN=C1CCCCCC1)c1ccc2c(c1)OCO2	-1%	16%	-1%	x	u	x	8%	u
Cc1ccc2oc(=O)n(Cc3ccccc3)c2c1	-3%	3%	-19%	x	0%[46.1 µM]	x	6%	21%[46.1 µM]
CCOC(=O)Cc1nnc(NC(=O)CSc2nnc3c(n2)[nH]c2ccccc23)s1	-4%	-17%	x	x	6%	x	3%	18%[46.1 µM]
Cc1cccc(-c2c3c(=O)n(C)c(=O)n(C)c3c3nnc4ccccc4n23)c1	x	-5%	20%	x	11%	x	-23%	10%
O=C(Cc1ccc(Cl)c(Cl)c1)Nc1cccc(S(=O)(=O)N2CCOCC2)c1	0%	-27%	x	x	u	x	6%	u
COc1ccc(S(=O)(=O)Nc2c(C)n(C)n(-c3ccccc3)c2=O)cc1	x	23%	4µM*	0%	-13%	4.8%	13%	1%
C[C@]12c3[nH]c4cc(-c5ccco5)ccc4c3CCN1C(=O)[C@@H](CC(=O)NCc1ccco1)C[C@@H]2C(=O)N1CCOCC1	-9%	-17%	x	x	x	x	-8%	1%
CCOc1ccc(N(CC(=O)NCc2ccc(F)cc2)C(=O)CCC(=O)Nc2nccs2)cc1	-1%	2%	-2%	x	u	x	-3%	u
CCCCN(CC)C(=O)Cn1cnc2ccc(S(=O)(=O)N3CCC(C)CC3)cc2c1=O	7%	5%	18%	u	-7%&11%	-3.4%	-1%	-4%&8%
Cc1ccccc1NC(=O)CSCc1nc(N)nc(Nc2ccccc2C)n1	3%	13%	4%	7%	2%	-1.2%	-5%	-18%[46.1 µM]
Cc1ccc(NC(=S)NC(=O)c2ccc(-c3ccccc3)cc2)c(C)c1	-2%	-3%	12%	-17%	u	-3.6%	14%	u
CN(C(=O)CSc1nc2ccccc2c(=O)n1-c1ccccc1Cl)C1CCS(=O)(=O)C1 (stereo not given)	2%	-2%	x	x	-2%[46.1 µM]	x	8%	5%[46.1 µM]
Cc1cc(Br)cc(Cl)c1OC(=O)c1cnccn1	-1%	-6%	3%	x	0%	x	-6%	3%[46.1 µM]
CCOC(=O)c1cnc2ccc(OCC)cc2c1N1CCN(c2ccccc2)CC1	-32%	u	-16%	2%	u	-5.0%	2%	u
COc1ccc(-c2nnc(SCC(=O)Nc3cccc(F)c3)s2)cc1	x	29%	x	-10%	14%[46.1 µM]	0.3%	x	x
CCN(CC)C(=O)c1ccccc1NS(C)(=O)=O	0%	-1%	2%	x	3%	x	-9%	-25%[46.1 µM]
O=C(CN1CCCC1)Nc1ccccc1Sc1ccc(Cl)cc1	0%	-3%	x	x	6%	x	18%	u
COc1ccc(/C=N/N=C2/C(=O)Nc3ccccc32)cc1O	1%	27%	2%	x	9%	x	16%	38%[46.1 µM]
O=C(Nc1nnc2n1CCS2)c1ccc(F)cc1F	x	43%[activator]	x	15%	19%[46.1 µM]	-0.6%	x	x
O=C1CCc2cc(S(=O)(=O)N3CCN(c4ccccc4F)CC3)ccc2N1	-2%	x	-14%	-3%	-1%	4.2%	-4%	-20%
CCC(CC)C(=O)c1c[nH]c(C(=O)NCc2cccs2)c1	0%	12%	4%	x	2.5µM*	x	-2%	-13%[46.1 µM]

# Next part (5 carried over from the part before).
compound	SARS PLP yeast	2A StopGo	NS1 inh	Cruzain noTriton	LASV entry inh	Cruzain inh Det	RE007 growth inh	Marburg entry inh
O=C(CN1CCCC1)Nc1ccccc1Sc1ccc(Cl)cc1	0%	-3%	x	x	6%	x	18%	u
COc1ccc(/C=N/N=C2/C(=O)Nc3ccccc32)cc1O	1%	27%	2%	x	9%	x	16%	38%[46.1 µM]
O=C(Nc1nnc2n1CCS2)c1ccc(F)cc1F	x	43%[activator]	x	15%	19%[46.1 µM]	-0.6%	x	x
O=C1CCc2cc(S(=O)(=O)N3CCN(c4ccccc4F)CC3)ccc2N1	-2%	x	-14%	-3%	-1%	4.2%	-4%	-20%
CCC(CC)C(=O)c1c[nH]c(C(=O)NCc2cccs2)c1	0%	12%	4%	x	2.5µM*	x	-2%	-13%[46.1 µM]
C=CCn1c(CCCNC(=O)CCC)nc2ccccc21	2%	x	-4%	-17%	8%	2.1%	-1%	-3%
O=C1c2oc3ccc(Cl)cc3c(=O)c2C(c2ccco2)N1CCN1CCOCC1 (stereo not given)	-15%	-13%	-3%	28%	x	-10%	-8%	x
COc1ccc(C2CC(=O)C(C=NCCN3CCOCC3)=C(O)C2)cc1 (stereo not given)	-7%	-30%	-15%	1%	-5%	2.3%	5%	12%
N#CCC(=O)N/N=C/c1c(-c2ccccc2)n(-c2ccccc2)c2ccccc12	-15%	u	12%	x	u	x	2%	u
CC(=O)Sc1nc(-c2ccccc2)[nH]c1S(=O)(=O)c1ccc(C)cc1	0%	12%	6%	x	-7%	x	27%	0%[46.1 µM]
CCOC(=O)CCc1c(C)nc(SCCN2CCCC2)c(C#N)c1C	9%	u	-3%	-10%	15%	3.7%	-1%	u
Cc1nc(SC(C(N)=O)c2ccccc2)c(C#N)c(C)c1C (stereo not given)	1%	-4%	3%	x	13%	x	-10%	u
O=C(Nc1cccc(Cl)c1)c1cc(-c2ccccc2)on1	x	46%[activator]	x	-3%	15%[46.1 µM]	-0.2%	x	x
CCOC(=O)N/N=C1\CCc2ccccc21	-1%	31%[activator]	-11%	-10%	4%	0.5%	-2%	33%
Cc1ccc(-c2nn(C(C)(C)C)c3ncnc(NS(=O)(=O)c4ccc([N+](=O)[O-])cc4)c23)cc1	-3%	u	x	x	-6%	x	-23%	u
NC(=O)c1ccc(N=Cc2ccc([N+](=O)[O-])s2)cc1	-61%	u	-19%	-15%	u	-6.8%	40µM*	u
Cc1cccc(C(=O)Nc2nnc(S(=O)(=O)N(C)Cc3ccc(Cl)cc3)s2)c1	x	-14%	x	u	26%[46.1 µM]	-4.9%	x	x
COc1cccc(OCC(=O)Nc2c3c(nn2-c2ccccc2)CS(=O)(=O)C3)c1	-1%	-25%	0%	x	12%	x	-6%	4%
O=C(c1ccc(NC(=O)C2(c3ccccc3)CCOCC2)cc1)N1CCOCC1	x	17%	-3%	9%	-13%	7.8%	20%	-2%[46.1 µM]
CCN(CC(=O)Nc1ccc(N2CCOCC2)cc1)Cc1nc2ccccc2c(=O)[nH]1	-2%	-23%	14%	9%	11%	-0.4%	2%	3%
CCOc1ccc(N2C(=O)CC(SCC(=O)O)C2=O)cc1 (stereo not given)	-6%	5%	3%	x	-1%	x	-12%	5%[46.1 µM]
CSCCC(NC(N)=O)C(=O)N(C)CC(=O)Nc1ccc(C)cc1 (stereo not given)	3%	0%	5%	-3%	9%	5.3%	-5%	4%
Cc1ccc(Cl)cc1-n1ncc2c(N3CCCCCC3)ncnc21	x	20µM*	x	0%	u	0.2%	x	x
Cc1ccccc1OCCn1cnc2cc([N+](=O)[O-])ccc2c1=O	-1%	u	x	x	0%	x	-13%	u
O=C1CSC(=O)N1CCOCCN1C(=O)CSC1=O	14%	-18%	8%	9%	-28%	6.8%	18%	u
O=C(Nc1ccc2c(c1)OCCO2)c1ccccc1F	-4%	-62%	-58%	-7%	u	3.3%	-29%	u
COC(=O)COc1ccc(/C=C2/NC(=O)N(CC(=O)OC)C2=O)cc1	-7%	-16%	x	x	-1%	x	12%	11%
N=c1c(S(=O)(=O)c2ccccc2)cc2c(=O)n3ccccc3nc2n1CCCN1CCOCC1	3%	9%	0%	x	-13%[46.1 µM]	x	0%	u
CC(=O)Nc1ccc(NC(=O)CCn2c(=O)oc3ccccc32)cc1	1%	-4%	7%	x	9%	x	0%	12%[46.1 µM]
CCc1cccc(NC(=O)Cn2cc3c(n2)CCCC3)c1	1%	-15%	-5%	2%	x	-5.2%	6%	x
